AID504770 – growth inhibitors of E. coli YBA685 in a screen for V. cholerae RctB (chromosome II replication) inhibitors | 130,000 tested, 0.27% active | z-score (test concentration not listed) | E. coli YBA685 rctB-dependent plasmid, OD600 growth, 3 h; active compounds read low;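 active = z-score under -2 on both plates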;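 also: wells of about 30 µL received 100 nL stock; score is relative to mean and SD of the test wells; the first replicate is given; strong numbers were not always called active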
Ba CapD inh – CapD enzyme inhibition. AID 492967. z-score (no concentration beside the values). purified CapD enzyme, fluorescence intensity read-out; active compounds read low; some hits fall short of the stated cut. 140,000 tested, 0.23% active;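 active = z-score under -4 in either of two replicates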;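 also: stock transfer was 100 nL into about 40 µL; score is relative to mean and spread of the plate; one replicate is shown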
* = called active by the depositor; . = no result given.

SMILES	AID504770	Ba CapD inh
Cc1nc(/N=C(\NC(=O)c2ccccc2)Nc2ccccc2)[nH]c(=O)c1C	0.45	-0.255
COC(=O)CC(N)c1ccc(Cl)cc1 (stereo not given)	-0.85	-0.565
CCNC(=S)N1CCC(C(N)=O)CC1	-0.2	.
FC(F)(F)Oc1ccc(-c2cn3cccnc3n2)cc1	-0.45	89.6
O=C(NCCCN1CCCCC1)c1ccc2c(=O)n3c(nc2c1)CCCCC3	.	0.4
CCOC(=O)C1=C(C)NC2=C(C(=O)C(C(=O)OCC)C(c3ccc(OC)cc3)C2)C1c1ccc(C)cc1 (stereo not given)	.	13.3
CCn1c(COC(=O)CCc2ccc(OC)c(OC)c2)nc2cc(S(=O)(=O)N(C)C)ccc21	0.35	.
CCc1cc(Br)ccc1S(=O)(=O)NCC1CCC2CC1C2(C)C (stereo not given)	.	0.065
COC(=O)c1ccc(CSc2nc3ccc(Cl)cc3[nH]2)o1	1.2	.
CCn1c(=O)c(=O)n(CC)c2cc(S(=O)(=O)NCc3ccc(OC)cc3)ccc21	-0.35	0.61
c1cncc(C(N2CCOCC2)N2CCOCC2)c1	.	-0.325
O=C(c1ccc(Cn2c(=S)[nH]c3cc4c(cc3c2=O)OCO4)cc1)N1CCN(c2ncccn2)CC1	0.4	0.055
CCOc1cc(N2CCOCC2)c(OCC)cc1NC(=O)CCNS(=O)(=O)c1cc(C)ccc1C	-0.25	.
CC(=O)NCC(c1cccs1)N1CCc2ccccc21 (stereo not given)	-0.25	.
CCCCn1c(SCC(=O)Nc2nccs2)nc2ccsc2c1=O	-0.05	0.18
O=C(Oc1ccc2c(c1)OCO2)c1ccco1	-0.25	.
O=C(OCn1nnc2ccccc2c1=O)c1ccc(S(=O)(=O)N2CCOCC2)cc1	0.5	.
CNC(=O)C1=C(C)NC(=O)NC1c1cccs1 (stereo not given)	0.3	.
CCOC(=O)C1(c2ccc(OC)cc2)CCOCC1	-0.7	0.58
COc1ccc(-c2nc3ccc(Cl)cc3n2OCc2ccc(Cl)cc2)cc1	.	0.22
CCN1CCN(C(=O)c2cc3cc(OC)ccc3oc2=O)CC1	-1.05	32.5
O=C(NCc1ccccc1Cl)C1CCCN1C(=O)NCc1ccccc1 (stereo not given)	-0.55	.
CCC(C)NC(=O)CSc1nnc(Nc2ccc(C(C)C)cc2)s1 (stereo not given)	2.25	.
CCN(C(=O)CCc1nc(-c2ccccc2F)no1)c1ccc(C)c(C)c1	-0.15	0.135
COc1ccc(NC(=O)c2c[nH]n3c(=O)cc(C4CCNCC4)nc23)cc1Cl	2.65	-0.175

Next section (two carried over from the part before).
SMILES	AID504770	Ba CapD inh
CCN(C(=O)CCc1nc(-c2ccccc2F)no1)c1ccc(C)c(C)c1	-0.15	0.135
COc1ccc(NC(=O)c2c[nH]n3c(=O)cc(C4CCNCC4)nc23)cc1Cl	2.65	-0.175
CC1(C)CN=C(Nc2ccc(F)cc2)S1	.	0.545
O=S(=O)(Nc1ccc2nc[nH]c2c1)c1ccccc1	-0.5	.
O=S(=O)(c1ccccc1)N1CCC(c2nc(-c3cccc(C(F)(F)F)c3)no2)CC1	.	0.02
Cc1c(-c2ccc3ccccc3n2)sc2ncnn12	-0.5	22.2
O=c1[nH]c(Cn2c(-c3cncs3)nc3ccccc32)nc2ccccc12	0.3	1.52
CCCCN1Cc2c(nc3cc(-c4ccccc4)[nH]n3c2=O)C1=O	-0.6	19.9
COc1ccc(CCNC(=O)OCCCCc2ccc([N+](=O)[O-])cc2)cc1	.	0.975
OC(c1cc(C(F)(F)F)cc(C(F)(F)F)c1)c1cc(C(F)(F)F)cc(C(F)(F)F)c1	.	0.48
O=C(Nc1ccccc1)Nn1c(-c2ccccn2)nnc1-c1ccccn1	.	-0.92
Cc1cccc(OCC(=O)O/N=C(\N)c2ccncc2)c1	-0.75	-0.375
CC1=C(C(=O)Nc2ccc(Br)cn2)C(c2ccc(Cl)c([N+](=O)[O-])c2)C2=C(CCCC2=O)N1 (stereo not given)	.	-0.555
Cc1c2c(=O)n(-c3ccccc3)[nH]c2cc(=O)n1CC1CCCO1 (stereo not given)	-0.7	-0.67
O=C(O)Cn1c(SCCOc2ccc3ccccc3c2)nc2ccccc21	.	0.735
CCOC(=O)C1CCCN(C(=O)S(=O)(=O)c2ccc(-c3csc(C)n3)s2)C1 (stereo not given)	-1.1	0.53
Cc1cccc(NC(=O)N2CCCC2c2cccnc2)c1 (stereo not given)	0.2	-0.115
COc1cc(-n2c(C)nc3cc(C(=O)NCc4cccnc4)ccc32)cc(OC)c1OC	.	-0.685
CC(C)NC(=O)CCCc1ccccc1	-0.3	0.025
CCOC(=O)c1sc2nc(CNC(C)C)nc(NC(C)C)c2c1C	-0.75	.
O=C1CSC(c2ccc(Cl)c(Cl)c2)Nc2cccc3cccc1c23 (stereo not given)	.	-0.03
CNC(=O)c1cc(S(=O)(=O)N2CC(C)OC(C)C2)ccc1N1CCOCC1 (stereo not given)	-0.55	1.07
COc1cccc(NC(=S)N(CCC#N)C2CCCCC2)c1	.	0.63
O=S(=O)(c1cccc(C(F)(F)F)c1)N1CCCCC1	-0.75	0.14
O=S(=O)(/C=C/c1ccccc1)N1CCOCC1	-0.25	.
CC(=O)N1CCN(c2ccc(Oc3ccc(C(F)(F)F)cn3)cc2)CC1	-0.25	.
Cc1ccc2nc(-c3ccc(S(=O)(=O)N4CCCCC4)cc3)cn2c1	.	29.9

14 successive compounds from above:
SMILES	AID504770	Ba CapD inh
Cc1c2c(=O)n(-c3ccccc3)[nH]c2cc(=O)n1CC1CCCO1 (stereo not given)	-0.7	-0.67
O=C(O)Cn1c(SCCOc2ccc3ccccc3c2)nc2ccccc21	.	0.735
CCOC(=O)C1CCCN(C(=O)S(=O)(=O)c2ccc(-c3csc(C)n3)s2)C1 (stereo not given)	-1.1	0.53
Cc1cccc(NC(=O)N2CCCC2c2cccnc2)c1 (stereo not given)	0.2	-0.115
COc1cc(-n2c(C)nc3cc(C(=O)NCc4cccnc4)ccc32)cc(OC)c1OC	.	-0.685
CC(C)NC(=O)CCCc1ccccc1	-0.3	0.025
CCOC(=O)c1sc2nc(CNC(C)C)nc(NC(C)C)c2c1C	-0.75	.
O=C1CSC(c2ccc(Cl)c(Cl)c2)Nc2cccc3cccc1c23 (stereo not given)	.	-0.03
CNC(=O)c1cc(S(=O)(=O)N2CC(C)OC(C)C2)ccc1N1CCOCC1 (stereo not given)	-0.55	1.07
COc1cccc(NC(=S)N(CCC#N)C2CCCCC2)c1	.	0.63
O=S(=O)(c1cccc(C(F)(F)F)c1)N1CCCCC1	-0.75	0.14
O=S(=O)(/C=C/c1ccccc1)N1CCOCC1	-0.25	.
CC(=O)N1CCN(c2ccc(Oc3ccc(C(F)(F)F)cn3)cc2)CC1	-0.25	.
Cc1ccc2nc(-c3ccc(S(=O)(=O)N4CCCCC4)cc3)cn2c1	.	29.9

Following part.
SMILES	AID504770	Ba CapD inh
CCNC(=O)c1c(O)c2cccc3c2n(c1=O)CC3	-0.2	0.565
COc1ccccc1CNC(=O)c1ccc2nc3[nH]c4ccccc4c3nc2c1	-0.05	1.46
COC(=O)c1ccc(C2C3=C(Nc4nnnn42)C(C2CCCCC2)CCC3)cc1 (stereo not given)	-0.05	.
CCn1c(SCc2nnc(-c3ccccc3)o2)nnc1-c1ccccc1	-0.05	.
CC(C)(C)c1nc(C#N)c(N2CCC(C(N)=O)CC2)o1	0.35	1.03
Cn1c(=O)[nH]c(=S)c2nc(-c3ccc(F)cc3)cnc21	-1.05	.
CC(C)(C)OC(=O)NN=C1CCCC1	-1.1	.
CC(C)C(=O)O/N=C1\C(=O)N(Cc2ccc(Cl)cc2Cl)c2ccccc21	.	-0.835
COc1ccc(C2C3=C(CCCC3=O)N(c3ccc([N+](=O)[O-])cc3)C(=N)/C2=C(/O)c2ccccc2)cc1 (stereo not given)	.	-0.495
Cc1cccn2c(=O)c3cc(C(=O)N4CCN(C)CC4)c(=N)n(Cc4cccnc4)c3nc12	-0.95	-0.36
Fc1ccc(NC(=S)Nc2ccccc2)cc1	0	0.195
N#Cc1c(-c2ccccc2)cc2nc3ccccc3n2c1N	1.1	.
O=S1(=O)CCC(N/N=C/c2ccccc2O)C1 (stereo not given)	-0.55	.
CN(C)S(=O)(=O)c1ccc(N2CCCC2)c(C(=O)OCCCOc2ccc(F)cc2)c1	0.85	.
COc1ccccc1NC(=O)Nc1ccc2c(c1)nc(C)n2C	-0.55	.
COc1ccc(-c2cc(C(F)(F)F)c(C#N)c(SCC(=O)Nc3cc(C)on3)n2)cc1	.	-0.155
CC(=O)Nc1ccc(/C=N/NC(=S)Nc2cccnc2)cc1	-0.35	.
O=C(NC1CCCC1)c1noc2ncnc(N3CCOCC3)c12	0.05	-0.115
COc1ccc(CC(=O)Nc2oc(-c3ccccc3)c(-c3ccccc3)c2C#N)cc1	.	3.37
CCOC(=O)c1oc2ccc(Br)cc2c1CSc1nnc(N)s1	0.2	.
Cc1ccc2c(CN3C(=O)C4CC=CCC4C3=O)cc(=O)oc2c1C (stereo not given)	-0.3	0.565
CCOC(=O)c1ccc(N2C(=O)C(C)C(Cc3cc(C)cc(C)c3)C2=O)cc1 (stereo not given)	-1.15	-0.86
NS(=O)(=O)c1ccc(CCNC(=O)Nc2cccc(Cl)c2)cc1	-0.05	.
CN(C)CCOC(=O)c1ccccc1C(=O)O	-0.3	-0.13
Cn1nnnc1SCC(=O)Nc1ccc2nc(SCc3ccccc3F)sc2c1	.	-0.01

The list goes on:
SMILES	AID504770	Ba CapD inh
COc1cccc(NC(=O)c2sc3ncn(CC(=O)Nc4cccc(C(F)(F)F)c4)c(=O)c3c2C)c1	.	-0.465
OCc1nnc2c3ccccc3c(-c3ccccc3)nn12	-1.1	2.5
CC(C)(C)c1cc2cc(NC3CCN(C(=O)c4cccc(C(F)(F)F)c4)CC3)ccc2[nH]1	.	-0.195
COCCOC(=O)C1=C(C)NC2=C(C(=O)CC(c3ccc(OC)cc3)C2)C1c1cc(OC)c(OC)c(OC)c1 (stereo not given)	.	5.98
C=C(C)CNC(=O)CCC(=O)N1CCc2cc(S(=O)(=O)N(C)C)ccc21	.	0.325
O=C1NC(=O)C(=Cc2ccc(OCc3cccc([N+](=O)[O-])c3)c(Br)c2)C(=O)N1	.	-0.45
COC(=O)c1cc(COC(=O)c2ccc(Cl)cc2)oc1C	1.65	.
O=C(N/N=C/c1cc(OCc2ccccc2)cc(OCc2ccccc2)c1)c1csc(CS(=O)(=O)Cc2ccco2)n1	.	-0.27
O=C(OCN1C(=O)c2ccccc2C1=O)c1ccc(-n2cnnn2)cc1	-0.25	.
Cc1cc(=O)[nH]c(Sc2c(C)c3cc4c(cc3[nH]c2=O)OCO4)n1	-0.3	26
COc1ccc(-c2noc(CC(=O)NC3CC3)n2)cc1	0.2	-0.98
CN1C2CCC1CC(NC(=O)Nc1ccc(F)cc1F)C2 (stereo not given)	0.5	0.845
Cc1ccc(NC(=O)Nc2cccn(Cc3ccc(Cl)cc3)c2=O)nc1	.	2.65
CC(C)c1ccccc1OCC(O)CN1CCCCC1 (stereo not given)	-0.7	0.265
CCOc1ccc(-c2nn(C)c(C)c2Oc2ccccc2)c(O)c1	0.05	0.1
COC(=O)c1sc(NC(C)=O)nc1C	0.5	0.415
Cn1c(-n2c(CN3C(=O)c4ccccc4C3=O)nc3ccccc3c2=O)nc2ccccc21	.	-0.055
NC(=O)COC(=O)CC1CC2CCC1C2 (stereo not given)	-1.5	.
Cc1ccc(Sc2ncccc2-c2nnc(-c3ccccc3)o2)cc1	-0.4	1.71
O=C(NCCOc1nnc(-c2ccccc2)o1)c1c(F)cccc1F	-0.3	-0.245
CCOC(=O)C1=C(C)N(c2ccc(OC)cc2)C(=O)/C1=C\c1ccco1	0.1	0.05
CCn1nc(C)cc1C(=O)Sc1ccc(C(F)(F)F)cn1	-0.3	-1.36
CCN(CC)c1ccc(NC(=S)Nc2ccc(OC)cc2)c(C)c1	.	0.26
Nc1cc(C(=O)O)c2ccccc2n1	-0.65	.
CCN(c1ccc(NC(=O)COC(=O)c2ccc(N(C)C)cc2)cc1)C(C)C	-1	.

Continuation.
SMILES	AID504770	Ba CapD inh
CCCCc1cc(O)c(CCCC)c(O)c1	-0.65	.
Cn1cnnc1SCC(=O)N(CC1CCCO1)c1nc(-c2ccc(Br)cc2)cs1 (stereo not given)	-0.9	.
CC(C)n1c(NCc2ccccc2)nc2ccccc21	-0.45	-0.115
COCCNC(=O)CSc1nc2cc(C(=O)NCCOC)ccc2c(=O)n1Cc1ccc2c(c1)OCO2	.	-0.05
COCCn1c(C)cc(C(=O)CSc2nc(-c3ccccc3)cs2)c1C	-0.15	.
CC(=O)N1CCc2c(sc(NC(=O)c3ccccc3)c2C(N)=O)C1	0	4.87
CC1(C)CC(=O)C2=C(C1)c1c(ccc3ccccc13)NC2c1cc(C(C)(C)C)c(O)c(C(C)(C)C)c1 (stereo not given)	.	-0.26
COc1ccc(CCNC(=O)CSc2c[nH]c3ccccc23)cc1OC	0.2	-1.15
O=C(NCc1cccs1)c1cnc2sccn2c1=O	0.1	.
CN1/C(=C2\C=NN(c3ccccc3)P2(=O)N2CCCC2)C(C)(C)c2ccccc21 (stereo not given)	-0.55	.
O=C(O)c1ccc(C(F)(F)F)cc1C(F)(F)F	-0.4	0.825
CN1C(=O)CN(C2CCCCC2)C(=O)c2ccccc21	-0.95	11.1
CCC(=O)N1c2ccccc2NC2=C(C(=O)CC(C)(C)C2)C1c1ccc(-c2cccc([N+](=O)[O-])c2)o1 (stereo not given)	.	-0.345
CC1(C)CC(=O)C(C2c3ccccc3Oc3ccccc32)C(=O)C1	2.7	22.6
O=C(O)C(NS(=O)(=O)c1ccccc1)C(O)c1ccccc1 (stereo not given)	-0.25	.
CC(C)(C)C1(O)C=C(O)C(=O)N1c1cccnc1 (stereo not given)	0	0.545
c1ccc2c(c1)CCC/C2=N\NC1=NCCN1	2.15	-0.185
Clc1ccc(COc2ccc(-c3ccnc4ncnn34)cc2)c(Cl)c1	.	53.4
O=CN1CCC(=O)N(Cc2ccccc2)c2ccccc21	.	-0.095
CNS(=O)(=O)c1cccc(C(=O)NC2CCCc3ccccc32)c1 (stereo not given)	-1.5	.
Cc1cc(N/N=C/C2=C(N3CCOCC3)C(=C\c3ccc(Cl)cc3Cl)/CC2)n[nH]1	0.25	.

Assay outcomes: PubChem BioAssay, ICCB-Longwood Screening Facility, Harvard Medical School
